Screening data as filed in PubChem.
A488 autofl = A488 region autofluorescence | compound autofluorescence, A488 spectral region, dye equivalency; hits give high values | 59,000 tested, 0.1% active | max dye equivalency, M | AID 591; active = above 10 nM dye equivalent; inconclusive = 1 to 10 nM; inactive = 1 nM or less; about half of its hits are not listed in these tables;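 note: highest value over a series up to 38 µM; compound alone in buffer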
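Readout is A488 dye-equivalent concentration, calibrated by a per-plate six-point Alexa 488 series. Compounds in 100 mM Tris buffer pH 8.0 were incubated 15 min at room temperature. Plates were imaged using 480 nm excitation/540 nm emission filters.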
Resorufin autofl = resorufin region autofluorescence; Compound fluorescence, resorufin region 547/598 nm, buffer; hits give high values; max dye-equivalent concentration, M; 59,000 tested, 0.04% active; active = above 10 nM dye equivalent; inconclusive = 1 to 10 nM; inactive = 1 nM or less; a few of its hits are not listed in these tables; note: highest value over a series up to 38 µM
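Tris 100 mM pH 8.0; compound added, 15 min RT; CCD imager read, ex 547 nm/em 598 nm; signal normalized to resorufin standard curve (six concentrations per plate) as dye-equivalent concentration.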
AID923 = qHTS Assay for Allosteric/Competitive Inhibitors of Caspase-1: Spectroscopic Profiling in AFC Spectral Region; compound fluorescence, AFC spectral region (405/520 nm); almost no hit is shown here; Potency, µM (series often up to 57.5 µM), for inactives: at the top dose fluorescence increase, most hits filed as activators; 75,000 tested, 1.1% active; active = well fitted activation curve with a large enough effect; inconclusive = small, poorly fitted or top-dose-only effect;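 note: potency is the fitted concentration of half-maximal effect; 0% is about no effect; scaled to a free AFC standard on each plate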
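Compound autofluorescence profiled at 405 nm ex/520 nm em during kinetic caspase 1 run (50 nM enzyme, 5 uM Ac-WEHD-AFC, HEPES pH 7.5, 10 mM DTT). Titration up to 57 uM; baseline from regression intercept, normalized to AFC standard curve.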
A647 autofl = compound autofluorescence in A647 spectral region. Compound fluorescence, A647 channel (570/671 nm), Tris buffer. max dye-equivalent concentration, M. 59,000 tested, under 10 active. AID 592; active means above 1 µM dye equivalent; inconclusive means 0.1 to 1 µM; inactive means 0.1 µM or less;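 note: values scaled relative to a standard on each plate; highest value over a series up to 38 µM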
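Compound fluorescence was measured in 100 mM Tris buffer, pH 8.0, after 15 min at room temperature, using 570 nm excitation and 671 nm emission filters. Signal was normalized to a per-plate Alexa 647 standard curve and expressed as dye-equivalent concentration at each compound concentration.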
TSHR agonist = TSH receptor (human) agonism | P16473 | HEK293-CNG-TSHR cells (CNG channel as cAMP sensor), membrane potential dye, cAMP | Potency, µM (top dose mostly 57.1 µM), inactives show at the top dose activation, most hits filed as activators | 73,000 tested, 0.48% active | AID 926; active = well fitted activation curve of enough size with the parental cells flat; inconclusive = any curve in the parental cells; inactive = parental cells flat and receptor cells flat or falling; note: potency is the fitted concentration of half-maximal effect; % of control where 0% means no effect; weak receptor curves with flat parental cells got no call and are not listed
Target sequence (P16473 whole entry, looked up): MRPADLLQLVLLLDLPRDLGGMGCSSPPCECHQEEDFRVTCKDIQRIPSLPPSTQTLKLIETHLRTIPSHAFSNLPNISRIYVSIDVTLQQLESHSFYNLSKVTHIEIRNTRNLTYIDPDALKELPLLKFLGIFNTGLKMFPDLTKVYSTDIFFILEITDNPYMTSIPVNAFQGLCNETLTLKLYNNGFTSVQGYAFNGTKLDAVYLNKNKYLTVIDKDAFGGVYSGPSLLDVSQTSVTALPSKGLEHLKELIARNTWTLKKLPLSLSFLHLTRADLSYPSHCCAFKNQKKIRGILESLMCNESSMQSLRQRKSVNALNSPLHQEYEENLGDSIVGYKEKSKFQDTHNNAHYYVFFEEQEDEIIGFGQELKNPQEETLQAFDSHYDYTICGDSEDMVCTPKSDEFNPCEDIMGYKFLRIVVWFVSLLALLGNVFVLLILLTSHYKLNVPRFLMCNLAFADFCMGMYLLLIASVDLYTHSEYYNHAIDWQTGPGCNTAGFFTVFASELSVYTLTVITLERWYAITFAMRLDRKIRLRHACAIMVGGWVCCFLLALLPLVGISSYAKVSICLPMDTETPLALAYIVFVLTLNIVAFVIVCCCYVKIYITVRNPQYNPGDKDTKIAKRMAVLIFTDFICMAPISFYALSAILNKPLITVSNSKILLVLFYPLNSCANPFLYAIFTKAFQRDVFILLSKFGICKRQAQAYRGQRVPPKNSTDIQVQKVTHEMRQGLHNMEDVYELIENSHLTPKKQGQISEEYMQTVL
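HEK 293 cells stably expressing TSHR and a modified CNG channel, with CNG-only parental cells as counterscreen, were preloaded 60 min at room temperature with membrane potential dye containing 100 uM RO 20-1724. Compound exposure was 30 min, and depolarization was read as fluorescence at 590 nm.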
The depositor's hits bear a star; i = inactive; ? = inconclusive; . = no result given; & = joins results of further samples; [ ] = another dose, or the depositor's remark.

SMILES	A488 autofl	Resorufin autofl	AID923	A647 autofl	TSHR agonist
CC1(C)CC(=O)C=C(Nc2ccc(F)cc2)C1	i	i	1.3%	6.7e-09	2%
O=C(c1cc2ccccc2c(=O)o1)N1CCc2ccccc2C1	i	i	0.3%	2.3e-08	4%
NC[C@@H]1O[C@H](c2ccccc2)Cc2c1ccc(O)c2O	.	.	-3.2%	.	6%
O=C(O)c1ccc2c(c1)C(=O)N(c1ccc(Cl)cn1)C2=O	.	.	5.3%	.	-11%
COc1cc(C)nc(Oc2ccc(/C=N/O)cc2)n1	.	.	0.6%	.	7%
CCSC1(SCC)N=C(N)C2(C#N)C(c3ccc(OC)c(OC)c3OC)C12C#N (stereo not drawn)	i	i	1.7%	3.5e-09	.
S=c1c2[nH]cnc2ncn1CCSc1ncnc2nc[nH]c12	i	i	0.8%[11.5 µM]	1e-09	-1%[11.4 µM]
O=c1cnc2ccccc2n1CC1CCCCC1	i	i	-0.7%	5.8e-08	7%
COc1ccc(C2CC(c3ccc(Cl)cc3Cl)Nc3nc(N)nn32)cc1OC (stereo not drawn)	.	.	-2.2%	.	-2%
O=C(C1CCCN(S(=O)(=O)c2cccc3cccnc23)C1)N1CCc2ccccc21 (stereo not drawn)	.	.	0.6%	.	2%
Cc1ccc2c(n1)sc1c(N)ncnc12	i	i	1.6%	3.8e-09	11%
CC(=O)c1c(C)[nH]c(C(=O)CSc2nc3ccccc3c(=O)n2CCCN2CCOCC2)c1C	i	i	1.4%	7.8e-09	15%
CCOc1cc2[nH]c(=O)n(Cc3ccc(C(=O)NCCOC)cc3)c(=O)c2cc1OCC	.	.	0.0%	.	-12%
COc1cc(OC)cc(-c2nc(-c3cc4cc(C)ccc4nc3OC)no2)c1	i	i	0.3%	4.2e-09	?
Cc1ccc(S(=O)(=O)NCC(=O)OCN2C(=O)c3ccccc3C2=O)cc1	i	i	.	1.2e-09	.
O=C(c1csnn1)N1CCC[C@@]2(CCN(c3ccncc3)C2)C1	i	i	2.7%	4.6e-09	2%
COc1ccccc1C(=O)NC(CCSC)C(=O)NCC(c1ccco1)N(C)C (stereo not drawn)	i	i	1.1%	2.9e-08	3%
CCn1c2ccccc2c2nnc(SCC(=O)NCCOC)nc21	i	i	0.6%	1.2e-08	1%
CCN(CC)S(=O)(=O)c1ccc(Oc2cccc(C(C)=O)c2)nc1	i	i	-1.0%	1.6e-09	3%
CC(=O)Oc1cccc(N2C(=O)C3C4C=CC(C4=C(C)C)C3C2=O)c1 (stereo not drawn)	.	.	3.0%	.	-11%
CCn1c(=O)cc(OCC(=O)Nc2ccc(C)cn2)c2ccccc21	i	i	-1.6%	7.1e-09	-3%[11.4 µM]
Cc1ccccc1C(=O)Nc1ccc(Cl)cn1	.	.	2.8%	.	9%
Cc1ccc(-c2nnn(CCC(=O)Nc3ccc4c(c3)OCO4)n2)cc1	i	i	-0.3%	8.8e-09	.
CCn1c(SCC(=O)NCc2ccco2)nnc1-c1cccs1	i	i	-0.5%	8.5e-09	4%
CC(C)(C)[Si](OCC[C@@H]1C[C@@]1(C)[C@@H](NP(=O)(c1ccccc1)c1ccccc1)c1ccccc1)(c1ccccc1)c1ccccc1	.	.	0.7%	.	6%
Next compounds
SMILES	A488 autofl	Resorufin autofl	AID923	A647 autofl	TSHR agonist
O=C(CCCc1c[nH]c2ccccc12)N1CCOCC1	i	i	-0.1%	5.4e-08	0%
COc1ccc2[nH]c(=O)c(-c3noc(-c4ccc(F)cc4)n3)cc2c1	i	i	19%	4.6e-08	8%
COc1ccc(Nc2cc(=O)n(C3CCCCC3)c(=O)[nH]2)c(OC)c1	i	i	-1.1%	8.5e-09	?
Cc1ccc(S(=O)(=O)N2C(=O)CCC2C(=O)NCc2ccco2)cc1 (stereo not drawn)	i	i	1.8%	1e-09	0%
CN(C)C(=O)c1ccc(-c2ccc3ncnc(NC4CC4)c3c2)cc1	i	i	2.7%	1.4e-09	5%
N=C1C(c2nc(-c3ccc(Cl)cc3)cs2)=C(O)CN1CCCN1CCOCC1	i	i	0.0%	2e-08	-7%
CCN(CC)CCOC(=O)C12CC3CC(CC(C3)C1)C2	i	i	3.1%	1e-09	20%
O=c1c2c3c(sc2nc2sc(CN4CCOCC4)cn12)CCCC3	i	i	-2.2%	2.7e-09	-2%
CCOC(=O)NC(c1ccccc1)C1CCCCC1=O (stereo not drawn)	i	i	-1.9%	1e-09	-5%[11.4 µM]
Cc1nc2ncnn2c(C)c1CCC(=O)NCc1ccco1	i	i	-0.2%	2.7e-08	2%
CCOC(=O)c1oc2c(CN3CCN(C)CC3)c(O)ccc2c(=O)c1-c1ccccc1OC	.	.	1.8%	.	3%
COc1ccc(C(=O)COC(=O)CN2C(=O)C3C4C=CC(C4)C3C2=O)cc1 (stereo not drawn)	i	i	-2.0%	3e-08	1%
Cc1ccc(-c2csc3nnc(SCC(=O)NCc4ccco4)n23)cc1	i	i	0.1%	4e-08	7%
O=C(Nc1nc2ccccc2[nH]1)c1ccccc1F	i	i	-1.8%	2.1e-09	3%
Cc1nc2ccccc2n1CC(=O)NCCN1CCCC1	i	i	0.2%	2.2e-09	6%
CCc1ccc(Cn2nnc(C(=O)Nc3cccc(C)c3)c2N)cc1	.	.	-1.9%	.	-7%
CN(C)c1ccc(-c2nn3c(-c4ccncc4)nnc3s2)cc1	i	i	1.0%	1.7e-08	5%
COc1ccc(N2CCN(Cc3cc(=O)oc4cc(C)c(Cl)cc34)CC2)cc1	i	i	0.8%	2.7e-08	-1%
Cc1nc(N2CCc3ccccc32)[nH]c(=O)c1CCC(C)C	i	i	-2.4%	3e-08	4%
COc1ccc(OC)c(C2N(c3cc(C)on3)C(=O)C3CCCN32)c1 (stereo not drawn)	i	i	7.2%	1.8e-09	13%
COc1ccc(C(=O)Oc2ccc(/C=N/O)cc2)cc1	.	.	0.1%	.	25%
O=C1c2ccccc2C(=O)c2c(Nc3cc4c5c(ccc6c7ccc8c9c(cc(Nc%10cccc%11c%10C(=O)c%10ccccc%10C%11=O)c(c3c56)c97)-c3ccccc3C8=O)C(=O)c3ccccc3-4)cccc21	i	i	-1.5%[11.5 µM]	7.9e-09	-14%[11.4 µM]
Cc1cc(NC(=O)C(C)C)ncc1NC(=O)c1cccc(F)c1	i	i	0.3%	5.8e-08	-1%
Cc1ccc(C)c2[nH]c(=O)c(CCNC(=O)c3ccc(Br)o3)cc12	i	i	-1.3%	5.5e-09	20%
COc1ccccc1-c1nn2c(C3COc4ccccc4O3)nnc2s1 (stereo not drawn)	i	i	2.5%	2.9e-09	?

Rewritten with bars between the fields: seven of the compounds above.
mol | A488 autofl | Resorufin autofl | AID923 | A647 autofl | TSHR agonist
COc1ccc(C(=O)COC(=O)CN2C(=O)C3C4C=CC(C4)C3C2=O)cc1 (stereo not drawn) | i | i | -2.0% | 3e-08 | 1%
Cc1ccc(-c2csc3nnc(SCC(=O)NCc4ccco4)n23)cc1 | i | i | 0.1% | 4e-08 | 7%
O=C(Nc1nc2ccccc2[nH]1)c1ccccc1F | i | i | -1.8% | 2.1e-09 | 3%
Cc1nc2ccccc2n1CC(=O)NCCN1CCCC1 | i | i | 0.2% | 2.2e-09 | 6%
CCc1ccc(Cn2nnc(C(=O)Nc3cccc(C)c3)c2N)cc1 | . | . | -1.9% | . | -7%
CN(C)c1ccc(-c2nn3c(-c4ccncc4)nnc3s2)cc1 | i | i | 1.0% | 1.7e-08 | 5%
COc1ccc(N2CCN(Cc3cc(=O)oc4cc(C)c(Cl)cc34)CC2)cc1 | i | i | 0.8% | 2.7e-08 | -1%

Next part:
SMILES	A488 autofl	Resorufin autofl	AID923	A647 autofl	TSHR agonist
Cn1c2ccccc2c2nnc(SCN3C(=O)c4ccccc4C3=O)nc21	i	i	1.3%	2.7e-08	11%
COc1ccccc1N1CCN(S(=O)(=O)c2cccc(F)c2)CC1	i	i	0.9%	4.7e-09	3%
CCOC(=O)C1=C(C)NC2=C(C(=O)CCC2)C1c1ccc(N(C)C)cc1 (stereo not drawn)	.	.	1.4%	.	1%
Cc1cccc(NC(=O)c2ccccc2C(=O)O)c1	i	i	0.5%	6.4e-09	0%
Cc1nn2c(c1-c1ccccc1)NC1=C(C(=O)CCC1)C2c1cccnc1 (stereo not drawn)	i	i	-2.9%	3.6e-09	13%
Cc1cc(/C=N\O)c(C)n1-c1ccncc1	i	i	.	3.3e-09	.
CCCN(C#N)c1nc(NCC)nc(NC(C)C)n1	i	i	-1.4%	1e-09	?
O=C(c1ccccc1)N1CCCCC(Sc2nnnn2-c2ccccc2)C1=O (stereo not drawn)	i	i	-0.2%	3.2e-09	?
O=c1cc(-c2ccccc2)nc2nc(-c3ccco3)[nH]n12	i	i	-0.3%	2.1e-09	4%
CCOC(=O)CNC(=O)CSc1nc(C)cc(C)c1C#N	i	i	1.1%	5.2e-09	3%
CN(C)C(=O)c1ccc(COc2ccccc2Br)o1	i	i	2.0%	1.9e-08	3%
Cc1cc(NC(=O)CCC(=O)N(C2CC2)C2(C(=O)NC3CCCC3)CCC(C)CC2)no1 (stereo not drawn)	i	i	-1.1%	1e-09	12%
CCOC(=O)N1CCN(C(=O)c2ccc3c(=O)n(CCC4=CCCCC4)c(=O)[nH]c3c2)CC1	i	i	0.1%	9.2e-09	2%
CCOCc1nnc(NC(=O)CSc2ccccc2)s1	i	i	1.4%	2.3e-08	-5%
Cc1ccc(CS(=O)(=O)CCC(=O)NCC2CCCO2)cc1 (stereo not drawn)	i	i	-1.6%	1.8e-08	1%
COc1ccc(NC(=O)c2oc3ccccc3c2NC(=O)c2ccc3c(c2)OCO3)cc1	i	i	7.8%	1e-09	6%
COc1ccc(CCn2c(=N)c(C(=O)NCc3ccco3)cc3c(=O)n4ccccc4nc32)cc1OC	i	i	.	1e-09	.
COc1ccc(N2CCN(Cc3nc4c(c(=O)n(C)c(=O)n4C)n3Cc3cccc(C)c3)CC2)cc1	.	.	0.3%	.	-10%
O=C1c2ccccc2-c2ccc(NC(=O)[C@H]3CCCC[C@@H]3C(=O)O)cc21	i	i	-1.8%[11.5 µM]	2.5e-09	-6%[11.4 µM]
CCCN(CC(=O)c1cc(C)n(C)c1C)S(=O)(=O)c1cccc(C(F)(F)F)c1	i	i	2.6%	3.4e-09	?
CC(C)N(C(=O)CSc1nc2c([nH]1)c(=O)n(C)c(=O)n2C)c1ccccc1	.	.	3.5%	.	-6%
c1ccc(-c2cc(CSc3nc4ccccc4[nH]3)on2)cc1	i	i	-2.0%	1e-09	9%
O=C1C[C@@H](O)[C@@H](O)[C@H]2[C@@H]3C(=O)N(C4CCCCC4)C(=O)[C@@H]3CC[C@H]12	.	.	0.0%&1.2%&-0.8%[11.5 µM]	.	-4%&-6%&-10%[11.4 µM]
COc1cccc(-c2nn(C)c3sc(C(=O)N4CCOCC4)cc23)c1	.	.	1.7%	.	4%
CCn1cc(C(=O)N2CC=C(c3ccccc3)CC2)c(=O)c2ccc(C)nc21	i	i	-0.4%	5.4e-09	23%
CCOC(=O)c1sc(C)c2c(=O)n(CCCN3CCOCC3)cnc12	i	i	1.5%	4.4e-08	-2%
COc1ccc(Oc2ncc3nc(-c4ccc(F)cc4)c(=O)n(C)c3n2)cc1	i	i	-1.0%	1e-09	-7%
CCn1c(CSc2nc(C)cc(C)n2)nnc1SCC(=O)N1CCCc2ccccc21	i	i	-0.9%	1e-09	.

Part of the list above, set out differently.
canonical_smiles | A488 autofl | Resorufin autofl | AID923 | A647 autofl | TSHR agonist
COc1cccc(-c2nn(C)c3sc(C(=O)N4CCOCC4)cc23)c1 | . | . | 1.7% | . | 4%
CCn1cc(C(=O)N2CC=C(c3ccccc3)CC2)c(=O)c2ccc(C)nc21 | i | i | -0.4% | 5.4e-09 | 23%
CCOC(=O)c1sc(C)c2c(=O)n(CCCN3CCOCC3)cnc12 | i | i | 1.5% | 4.4e-08 | -2%

A portion of the library. The share of hits here may be higher or lower than overall.
